Compound activity as filed in PubChem BioAssay.
Ecoli growth = E. coli growth inhibition, primary screen, OD600. Escherichia coli growth, 23 h; hits give low values. OD600 absorbance (test concentration not listed). 0.21% of 330,000 active. AID 1053175, 2014;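 active = OD600 absorbance below the run mean of sample wells minus 3.6 SD, in any replicate, cut at about 0.56 in these data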;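 also: stock transfer was 300 nL into about 60 µL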
rRNA inh HTS = reduced GFP signal of wild-type E. coli, primary screen, bacterial rRNA inhibitor project, GFP/RFP fluorescence, OD600, single point; E. coli WT GFP vs humanized-ribosome RFP mutants, 24 h; hits give low values; DMSO median 0, no signal -100; AID 720706, 2013; 1.6% of 350,000 active; GFP signal change (wild-type ribosome), % (test concentration not listed);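 active = significant combined selectivity score with lowered wild-type GFP, culture density cut under 30%, mutant RFP and density less affected; inactive = any of these conditions unmet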; also: one replicate is shown; some compounds called inactive have numbers as strong as hits
HNF4A DNA FP = change in binding of human HNF4A to DNA, primary screen, biochemical, fluorescence polarization, FITC-DNA; 1 h; activity change, % at 10 µM; Hepatocyte nuclear factor 4-alpha (Homo sapiens), P41235; AID 1224865, 2016; 0.3% of 360,000 active; in the data active = activity change above about 30%, passing the limit was not always enough;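 also: controls were the assay level and a saturating level of protein; the project sought stronger binding though the title names inhibitors; some compounds called inactive have numbers as strong as hits; positive values seem to mean higher polarization but the record does not say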
B2AR ag = beta2AR agonists driving receptor internalization, primary screen, cell-based, FAP fluorogen, flow cytometry | response, % (test concentration not listed) | Am2.2-beta2AR cells; reference of the scale not given here | 0.43% of 340,000 active | Beta-2 adrenergic receptor (Homo sapiens), P07550;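 active = response above a set limit, near 3 SD of response in nonfluorescent compounds, cut at about 42% in these data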;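 also: stock transfer was 100 nL into about 11 µL; a reference agonist was the positive control; negative values mostly stem from fluorescent compounds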
Target sequence (P07550 whole entry, looked up): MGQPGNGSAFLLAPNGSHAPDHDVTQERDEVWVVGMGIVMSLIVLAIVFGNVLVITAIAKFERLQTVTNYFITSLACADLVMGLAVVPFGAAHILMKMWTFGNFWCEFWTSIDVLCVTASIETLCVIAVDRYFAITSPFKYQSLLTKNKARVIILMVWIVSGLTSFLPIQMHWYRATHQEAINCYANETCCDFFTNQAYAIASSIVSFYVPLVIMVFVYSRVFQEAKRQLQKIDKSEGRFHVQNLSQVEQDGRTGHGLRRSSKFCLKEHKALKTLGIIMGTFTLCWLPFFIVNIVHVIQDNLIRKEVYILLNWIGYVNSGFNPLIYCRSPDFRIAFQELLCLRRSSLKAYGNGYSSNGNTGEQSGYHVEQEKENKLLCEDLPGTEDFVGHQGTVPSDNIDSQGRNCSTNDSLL
ALR inh = inhibitors of human ALR sulfhydryl oxidase, primary screen, biochemical, H2O2 detection, HRP-luminol luminescence, single point. FAD-linked sulfhydryl oxidase ALR (Homo sapiens), P55789. purified ALR, DTT oxidation. inhibition, % (concentration not given with the values). 3.8% of 290,000 active. AID 485317, 2010;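 active = mean and each replicate at 75% or more; inconclusive = only one of the two met; inactive = neither met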;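 also: stock transfer was 7.5 nL into about 7.5 µL; 0% = neutral wells and 100% = wells with inactivated enzyme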
FGF22 binding = binders of human FGF22 protein, primary screen, FGF22 synaptogenesis inhibitor project, biophysical, thermal shift, single point; Fibroblast growth factor 22 (Homo sapiens), Q9HCT0; recombinant FGF22 thermal shift, SYPRO orange fluorescence; percent of sucrose octasulfate shift, DMSO zero; calls only at 9.99 µM; 1.5% of 340,000 active;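 active = melting point raised past a set limit in the mean and every replicate; inconclusive = no clear call; three in four hits are not shown here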
Target sequence (Q9HCT0 whole entry, looked up): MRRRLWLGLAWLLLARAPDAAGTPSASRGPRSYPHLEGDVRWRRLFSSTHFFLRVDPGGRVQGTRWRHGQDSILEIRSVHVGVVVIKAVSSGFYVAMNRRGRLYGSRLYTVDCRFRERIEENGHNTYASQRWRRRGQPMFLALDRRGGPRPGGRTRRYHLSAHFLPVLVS
UCH37 DUB inh = inhibitors of human UCH37 deubiquitinase, primary screen, biochemical, Ub-AMC cleavage, fluorescence. purified proteasome/UCH37. Ubiquitin carboxyl-terminal hydrolase isozyme L5 (Homo sapiens), Q9Y5K5. inhibition, % (test concentration not listed). 0.33% of 330,000 active;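 active = mean of two replicates above 20%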;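 also: 0% = compound-free wells with enzyme and 100% = wells lacking proteasome; stock transfer was 100 nL into about 20 µL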
Target sequence (Q9Y5K5 whole entry, looked up): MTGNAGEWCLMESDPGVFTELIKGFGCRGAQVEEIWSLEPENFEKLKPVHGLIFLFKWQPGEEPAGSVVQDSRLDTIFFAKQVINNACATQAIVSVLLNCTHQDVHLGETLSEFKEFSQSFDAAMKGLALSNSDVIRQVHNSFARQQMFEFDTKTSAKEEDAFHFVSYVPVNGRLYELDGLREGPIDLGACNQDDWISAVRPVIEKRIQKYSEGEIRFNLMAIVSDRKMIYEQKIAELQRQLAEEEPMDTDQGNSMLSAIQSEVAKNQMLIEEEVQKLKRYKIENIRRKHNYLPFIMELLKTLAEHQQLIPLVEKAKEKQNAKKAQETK
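Signal – fluorescence, ex 355 nm, em 460 nm · System – Proteasome-bound UCH37 · Input – 0.15 nM proteasome as dispensed · Timing – 30 min preincubation with enzyme, 25 min cleavage at room temperature · Read-out basis – percent inhibition of cleavage signal versus uninhibited and no-proteasome wells · Medium – Tris-HCl pH 7.4 with ATP-MgCl2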
rRNA inh HTS OD600 = recorded beside rRNA inh HTS, whose call it bears; OD600 change, %; measured here: OD600 growth;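 optical density of the mix in the first replicate; 0 = DMSO median and -100 = no signal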
rRNA inh HTS RFP = further read-out of rRNA inh HTS, marked with its call; RFP signal change, %; measured here: RFP humanized mutant strains;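 first replicate; 0 = DMSO median and -100 = no signal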
The depositor's hits bear a star; i = inactive; ? = inconclusive; · = not tested or not shown; & = joins results of further samples. Some of the compounds tested; rates above refer to the full screens.

SMILES	Ecoli growth	rRNA inh HTS	rRNA inh HTS OD600	rRNA inh HTS RFP	HNF4A DNA FP	B2AR ag	ALR inh	FGF22 binding	UCH37 DUB inh
CCOc1ccc(NC(=S)NN(C)C(=S)Nc2ccc(OCC)cc2)cc1	0.7	·	·	·	-2.8	1	33	·	4.4
C#CCOCCOCCOCCNc1nc(N2CCN(C(=O)C(Cc3ccc(O)cc3)n3cc(C(N)CC(C)C)nn3)CC2)nc(N2CCN(C(=O)C(Cc3ccc(O)cc3)n3cc(C(N)C(C)CC)nn3)CC2)n1 (stereo unspecified)	0.65	-14	-27	16	2.8	-4	-1	i	3.8
O=c1cc(NCc2ccccc2)[nH]c(=O)[nH]1	0.67	18	-4	1.6	2.1	-5	5	i	3.5
COc1cc(OC)nc(C(NC(=O)C2CCN(Cc3c[nH]c4ccccc34)CC2)c2ccc(Cl)cc2)n1 (stereo unspecified)	·	-64	-78	-23	-0.6	·	·	i	·
COc1cccc(/C=C2\Oc3cc(OCC(=O)N4CCCCC4)ccc3C2=O)c1OC	0.68	-30	-28	-3.7	-3.2	3	7	i	0.6
Cc1ccc(C(=O)C2=C(O)C(=O)N(c3ncccn3)C2c2ccc(F)cc2)o1 (stereo unspecified)	0.72	4	3	1.6	0.3	5	5	i	8.8
COc1ccc(C=CC(=O)c2c(OC)cc(OC)c(OC)c2O)cc1	0.71	8	32	1.4	-3.8	18	·	i	4.5
C[C@H](CO)N1C[C@H](C)[C@H](CN(C)Cc2ccncc2)OCc2ccccc2-c2c(n(C)c3ccccc23)C1=O	·	-4&-23	-9&-25	-2.2&24	1.6	·	·	i	·
O=C(CN(c1ccccc1)S(=O)(=O)c1ccc(F)cc1)NC1CCS(=O)(=O)C1 (stereo unspecified)	0.71	13	11	1.2	1.2	2	-9	i	1.9
COc1ccc(Cc2noc(-c3ccc(OC)c(OC)c3)n2)cc1OC	0.62	-18	-14	8.0	1.1	2	1	i	2.0
CCCC(=O)Nc1ccc(C(=O)N/N=C/c2ccc[nH]2)cc1	·	·	·	·	5.2	31	-2	·	·
CSc1ccc(OC2(C)CCN(Cc3ccc(-c4ccccn4)cc3)C2)cc1 (stereo unspecified)	·	-9	-47	4.3	1.3	·	·	i	·
Cc1nc(-c2ccc(S(=O)(=O)Nc3cccc(S(N)(=O)=O)c3)s2)cs1	0.69	1	10	24	2.8	3	-7	i	8.4
CCC(C(=O)Nc1cccnc1)c1ccccc1 (stereo unspecified)	0.7	-5	-9	-4.1	-1.3	9	-3	i	0.7
COc1ccc(CCNC(=O)C2CC(c3cc(C(F)(F)F)cc(C(F)(F)F)c3)=NO2)cc1 (stereo unspecified)	0.72	1	-9	2.6	-0.8	-3	·	i	3.2
CC(C)(C)NC(=O)Cn1c(SCC(=O)NCc2cccs2)nc2ccccc21	0.67	·	·	·	-5.2	0	-6	·	0.1
Cc1cc(C(=O)Cn2ncc(Cl)c(Cl)c2=O)c(C)n1CC(F)(F)F	0.68	·	·	·	6.6	43*	27	i	5.7
COC(=O)c1cc(C(=O)OCC(=O)N2CCCCC2)cc([N+](=O)[O-])c1	0.64	-6	5	-4.7	-3.1	2	-14	i	-0.2
Cc1occc1C(=O)Nc1cc(C(C)(C)C)on1	0.66	·	·	·	2.0	7	-4	·	0.9
O=C(c1cnsn1)N1CCN(c2ccccc2)CC1	0.71	·	·	·	2.3	-6	52	·	-0.2
CN1CCC(C2(O)c3ccccc3CSc3sccc32)CC1 (stereo unspecified)	0.73	·	·	·	4.1	0	-9	·	-0.8
CC1CCCC(C)N1C(=O)CSCc1ccc(Cl)cc1 (stereo unspecified)	0.68	·	·	·	4.2	-2	-13	·	0.9
O=C(NCc1ccco1)c1ccc(S(=O)(=O)N2CCCCCC2)cc1	0.64	2	-16	-4.1	5.7	-6	·	i	-2.8
NS(=O)(=O)c1ccc(NC2(C(=O)O)CCCC2)cc1	0.65	2	12	0.4	-0.7	-2	1	i	4.2
C=CCNC(=O)/C(C#N)=C/c1c(N2CCCCCC2)nc2ccccn2c1=O	0.65	7	14	3.9	0.7	3	-2	i	4.3
CCNc1nc(NC(C)C)nc(ON=C(C)C)n1	0.74	·	·	·	·	·	-1	·	1.3
COc1ccc(NC(=O)CN(C)CC(=O)N2CCCCCC2)cc1	0.57	10	2	0.8	-1.2	-4	·	i	1.0
COCCN(C(=O)c1ccco1)c1nc(-c2ccc(OC)cc2)cs1	·	-10	-26	-0.1	2.4	·	·	i	·
Cc1ccc(C)c(OCc2nnc(N)s2)c1	0.74	·	·	·	-3.5	16	-9	·	1.8
CC1(C)CC(NC(=O)c2cccc(S(=O)(=O)N(Cc3ccccc3)c3ccccc3)c2)CC(C)(C)N1	0.63	-18	-24	7.2	0.1	33	-3	i	-0.2
COc1cccc(C(=O)NC2CCN(C(=O)N3c4ccccc4Sc4ccccc43)CC2)c1	0.75	-5	-3	0.9	0.7	4	-17	i	4.6
O=c1c2ccccc2cnn1Cc1n[nH]c(=S)n1-c1ccc(Cl)cc1	0.68	·	·	·	6.0	-3	?	·	2.0
CC(C)(C)c1cc(CNC2CS(=O)(=O)C[C@@H]2O)cc(C(C)(C)C)c1O (stereo partly specified)	0.72	·	·	·	-0.1	1	4	·	1.2
COCCn1c(=O)[nH]c2cc(C(=O)NCCCN3CCN(c4ccc(F)cc4)CC3)ccc2c1=O	0.66	·	·	·	-1.7	-4	·	·	-8.4
O=C(OCc1nc2ccccc2s1)c1ccc(Br)s1	0.73	·	·	·	2.6	3	-13	·	2.3
Cc1sc2ncnc(N3CCC(C(=O)N(C)CC(=O)Nc4ccccc4Cl)CC3)c2c1C	0.68	-32	-53	-6.0	-0.2	-2	0	i	0.2
Nc1ccc(N=Nc2ccccc2)cc1[N+](=O)[O-]	0.69	-11	9	-3.1	0.9	0	·	i	5.4
CC[C@]12C(=O)N(C)C[C@H]([C@@H]3C(=O)N(C)C(=O)[C@@H]31)N2C(=O)c1ccc(Cl)c(Cl)c1	·	·	·	·	-3.3	-1	·	·	1.2
C(=N\n1cnnc1)/c1ccc2c(c1)OCCO2	·	·	·	·	-3.3	-2	-13	·	·
CCCCNC(=O)C(NC(=O)c1ccc(C)cc1)C(=O)c1ccccc1 (stereo unspecified)	·	16	20	4.4	-0.1	·	·	i	·
O=C(c1cc(-c2cccs2)on1)N1CCN(c2ccc(F)cc2)CC1	0.67	·	·	·	0.4	-1	-4	·	-1.1
O=C(Nc1cccc2ccccc12)c1ccccc1Cl	0.64	-6	1	0.4	-3.2	2	-7	i	1.1
O=C(NCCO)c1cccc(-c2cccc3nccn23)c1	·	6	10	-0.1	0.6	·	·	i	·
CCOC(=O)c1cc(-c2ccc(OC)cc2F)nc2c1c(C)nn2CCC#N	0.72	·	·	·	2.7	4	-2	·	-171
CCOC(=O)/C(C(C)=O)=C1\OC(=O)c2ccccc21	0.69	·	·	·	1.9	10	-10	·	3.3
O=C(Nc1ccc(F)cc1)C(c1ccccc1)N1CCN(c2cccc(C(F)(F)F)n2)CC1 (stereo unspecified)	·	-8	10	-2.0	-0.9	·	·	i	·
Cc1ccc(SC(c2ccc(C)cc2)C(Cn2cncn2)C(=O)c2ccccc2)cc1 (stereo unspecified)	0.72	·	·	·	-1.7	2	-19	·	0.7
Cc1ccnc(N2CCCC(C(=O)NC3CC3)C2)n1 (stereo unspecified)	0.69	0	9	-2.8	-2.0	-11	2	i	-5.0
CCOC(=O)c1c(C)[nH]c(C)c1S(=O)(=O)N1CCN(c2cccc(C)c2)C(C)C1 (stereo unspecified)	0.66	-8	2	1.6	-0.7	-2	60	i	1.6
CC1CN(C(=O)[C@@H]2CCCN2S(=O)(=O)c2ccc(Cl)cc2)CC(C)O1 (stereo partly specified)	0.67	26	17	10	0.8	-1	·	i	2.8
CSc1nc(Oc2ccc(F)cc2)c2ccccc2n1	0.71	·	·	·	1.4	1	-9	·	2.7
O=C1CC(N2CCCCCC2)C(=O)N1c1ccc2c(c1)OCO2 (stereo unspecified)	0.66	11	5	-2.5	2.7	-1	3	·	0.8
Cc1ccc(S(=O)(=O)N2CCN(C(=O)CSc3ncn[nH]3)CC2)cc1	0.67	10	4	0.6	4.8	5	·	i	-1.1
COc1ccc2c(c1)OC/C(=C/c1cccs1)C2=O	0.69	-15	-12	-9.4	2.0	7	·	i	7.9
N#Cc1ccccc1S(=O)(=O)NC(=O)[C@H]1O[C@@H](n2cnc3c(N)ncnc32)[C@H](O)[C@@H]1O	·	27	20	1.1	1.8	·	·	i	·
COc1ccc(C(=O)Nc2nc(C)c(C(=O)N(C)C)s2)cc1OC	0.73	·	·	·	1.8	-1	·	·	4.4
O=C(CC(c1ccccc1)c1ccccc1)Nc1ccc(O)cc1	0.66	-5	-4	0.6	0.3	0	99*	i	5.9
Cc1ccc(NC(=O)Cc2nc(CSc3nnc(-c4ccc5c(c4)OCO5)o3)cs2)cc1	0.7	·	·	·	1.6	-14	·	·	0.6
CCCN(CCC)Cc1c(C(=O)N/N=C/c2ccsc2)nnn1-c1nonc1N	·	8	9	-0.1	0.1	-11	·	i	·
CC1(C)CC(=O)C=C(N2CCNCC2)C1	0.68	·	·	·	1.0	-1	·	·	0.8
Continuation.
SMILES	Ecoli growth	rRNA inh HTS	rRNA inh HTS OD600	rRNA inh HTS RFP	HNF4A DNA FP	B2AR ag	ALR inh	FGF22 binding	UCH37 DUB inh
O=C(c1cnc2sccn2c1=O)N1CCN(c2ccccc2Cl)CC1	0.69	5	2	-2.7	-1.6	-6	6	i	5.7
COCCCNC(=S)N1CCN(C(=O)c2ccco2)CC1	0.71	·	·	·	0.8	-6	·	·	-0.8
CSCCOC(=O)c1[nH]c2c(c1C)C(=O)CC(c1ccco1)C2 (stereo unspecified)	0.75	7	9	5.1	-8.2	16	·	i	5.7
O=C1OC[C@@H]2CCCN2C(=O)[C@@H](CC(=O)N(CCO)Cc2ccccc2)C/C=C\CC[C@H]1Cc1ccc(F)cc1	·	-18	-21	-3.0	2.0	9	-7	i	2.3
COc1ccc(OC)c(S(=O)(=O)Nc2ccc(Oc3ccccc3)cc2)c1	0.77	·	·	·	-1.7	-11	-6	·	2.9
Cc1nc(N2CCC(C)CC2)c2nnn(Cc3ccccc3)c2n1	0.68	·	·	·	0.3	-5	-14	·	4.3
CCn1c2ccccc2c2cc(NC(=O)C3CCN(S(=O)(=O)c4cccs4)CC3)ccc21	0.71	17	12	-0.7	3.5	20	-1	i	-8.3

Structural class, the entries above with a cyano group
SMILES	Ecoli growth	rRNA inh HTS	rRNA inh HTS OD600	rRNA inh HTS RFP	HNF4A DNA FP	B2AR ag	ALR inh	FGF22 binding	UCH37 DUB inh
C=CCNC(=O)/C(C#N)=C/c1c(N2CCCCCC2)nc2ccccn2c1=O	0.65	7	14	3.9	0.7	3	-2	i	4.3
CCOC(=O)c1cc(-c2ccc(OC)cc2F)nc2c1c(C)nn2CCC#N	0.72	·	·	·	2.7	4	-2	·	-171
N#Cc1ccccc1S(=O)(=O)NC(=O)[C@H]1O[C@@H](n2cnc3c(N)ncnc32)[C@H](O)[C@@H]1O	·	27	20	1.1	1.8	·	·	i	·
